MbtI inh: inhibitors of Mycobacterium tuberculosis siderophore enzyme MbtI. purified MbtI enzyme, fluorescence intensity read-out. inhibition, %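 (about 17 µg/mL by stock and volumes)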. hit rate 0.89% among 100,000. AID 493033;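 active means above 50% in both replicates, above 80% if mildly self-fluorescent; inactive means the rest, strongly fluorescent compounds included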;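 further: 0% = mean of negative and 100% = mean of positive controls; one replicate is shown; some compounds called inactive have numbers as strong as hits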
Polio RdRp inh: inhibitors of poliovirus RNA polymerase binding and polymerization | poliovirus polymerase elongation, fluorescence polarization; hits give low values | % elongation, % (compound at 16.7 µg/mL) | hit rate 0.66% among 150,000; in the data active means % elongation below about 90%; further: some results filed as inactive read as strong as hits
Target sequence (P03300 1749-2209 limits assumed): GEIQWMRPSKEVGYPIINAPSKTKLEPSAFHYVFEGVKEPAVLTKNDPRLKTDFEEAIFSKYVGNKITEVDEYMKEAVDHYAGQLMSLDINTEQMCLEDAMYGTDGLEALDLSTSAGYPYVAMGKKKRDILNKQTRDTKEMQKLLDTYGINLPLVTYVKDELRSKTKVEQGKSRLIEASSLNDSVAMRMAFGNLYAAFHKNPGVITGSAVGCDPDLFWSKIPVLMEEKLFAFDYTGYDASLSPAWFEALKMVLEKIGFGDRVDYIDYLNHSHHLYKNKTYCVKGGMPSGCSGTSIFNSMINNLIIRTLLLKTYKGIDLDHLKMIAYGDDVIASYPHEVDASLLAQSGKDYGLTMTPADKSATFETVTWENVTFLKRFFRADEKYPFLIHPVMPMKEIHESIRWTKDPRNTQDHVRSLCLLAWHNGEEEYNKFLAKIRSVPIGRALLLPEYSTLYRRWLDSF
Mtb MenB inh: Mtb MenB enzyme inhibition. AID 540299. P9WNP5. inhibition, %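 (about 12 µg/mL by stock and volumes)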. hit rate 0.43% among 100,000. MenB enzyme assay, absorbance read-out; some hits fall short of the stated cut;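 active means mean of two replicates above 30%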;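 further: 0% = no compound and 100% = wells with inactive enzyme; the first replicate is given; strong numbers were not always called active; inactives centre near -10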
Target sequence (P9WNP5 whole entry, looked up): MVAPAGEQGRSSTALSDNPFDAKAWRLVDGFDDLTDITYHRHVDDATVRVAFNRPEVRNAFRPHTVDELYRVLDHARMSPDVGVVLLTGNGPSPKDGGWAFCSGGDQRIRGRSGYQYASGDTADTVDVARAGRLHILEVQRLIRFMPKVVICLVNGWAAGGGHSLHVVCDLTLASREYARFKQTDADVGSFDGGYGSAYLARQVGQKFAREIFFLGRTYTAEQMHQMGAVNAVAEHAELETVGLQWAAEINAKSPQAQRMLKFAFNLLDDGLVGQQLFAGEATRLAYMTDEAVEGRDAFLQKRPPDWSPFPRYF
Polio RdRp inh intensity: second read-out of Polio RdRp inh, no call of its own (marks repeat the call); % elongation; measured here: total intensity read-out; formula for this scale not given here;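 total fluorescence in place of polarization; lower means less elongation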
Active calls of the source: *; . = not tested or not shown; & = joins results of further samples.

SMILES	MbtI inh	Polio RdRp inh	Polio RdRp inh intensity	Mtb MenB inh
CN(C)c1ccc(-n2c(=O)c3cc4c(=O)n(-c5ccc(N(C)C)cc5)c(=O)c4cc3c2=O)cc1	.	105	90	-28
Cc1cc(-c2csc(NC=C(C#N)C#N)n2)c(C)n1CCC(C)C	0	110	202	-21
O=C1Nc2ccccc2OC1CC(=O)N1CCN(c2ccccc2)CC1 (configuration not stated)	-7	104	109	-25
COc1ccc(CCN2C(=O)CC(NNc3ccccc3)C2=O)cc1OC (configuration not stated)	8	106	98	-40
O=C1c2ccccc2C(=O)C1(Cc1ccc(Cl)cc1)c1ccc(Cl)cc1	-4	103	102	-27
O=C(NC1CS(=O)(=O)CC1NCc1ccco1)c1ccccc1 (configuration not stated)	.	108	112	-6
Cc1nnc(N(C)C(=O)CNC(=O)c2ccccc2)s1	5	100	102	17
CCCSc1nnc(NC(=O)C(CC)CC)s1	6	100	104	7
Cc1cccc(N2CCN(CCNC(=O)CCc3nnc4n(CCCOC(C)C)c(=O)c5ccccc5n34)CC2)c1C	0	102	100	9
O=C(O)c1cccc(COc2cccc(Cl)c2)c1	10	99	102	-4
CC(C)Cc1ccc(/C=C/C(=O)N2CCN(C/C=C/c3ccccc3)CC2)cc1	.	105	96	-18
O=c1c2c(nc3cc(-c4cccc(Cl)c4)[nH]n13)CCCC2	18	102	98	-40
O=c1sc2ccccc2n1Cc1nnc(-c2ccccc2)o1	-1	104	99	-70
C=CCNC(=S)N/N=C1\C=C(C)CC(C)(C)C1	-1	107	107	-53
Cc1cc(=O)n2[nH]c(NC(=O)c3ccc(C(C)(C)C)cc3)nc2n1	-7	105	103	10
CC(C(=O)NCc1ccco1)n1nc(-c2ccccc2)c2cc(Cl)ccc21 (configuration not stated)	-8	101	104	-1
Cc1ccc(NC(=S)N(CCC#N)C2CCCCC2)cc1	-15	105	108	0
CC(C)c1cc(C(=O)Nc2cccnc2)no1	-7	100	105	-28
COc1ccc2c(c1)CC(C1(O)C(=O)N(C)c3ccccc31)C2=O (configuration not stated)	15	99	99	19
O=C1c2ccccc2C(=O)C1C1c2ccccc2Oc2ccccc21	-10	104	105	-11
COC(=O)c1ccc(C(=O)OC)c(NC(=S)N2CCCC2)c1	0	100	101	-44
COC(=O)/C=C/CSc1nnc(-c2ccc(Cl)cc2Cl)o1	.	108	110	-19
Nc1nc2c(C(=O)NCc3ccncc3)nnn2c2ccccc12	-45	102	105	-3
CCN(CC)CC(=O)N1N=C(c2cccs2)CC1c1ccccc1O (configuration not stated)	2	.	.	-21
CCN(CC1COc2ccccc2O1)C(=S)Nc1ccccc1 (configuration not stated)	-12	102	104	-16
COc1ccc(S(=O)(=O)NCCc2cc3ccc(OC)cc3[nH]c2=O)cc1	25	101	103	4
Cc1nn2c(-c3cccc(NC(=O)CN4CCOCC4)c3)nnc2c2ccccc12	16	101	100	3
Cc1nc(C(F)(F)F)ccc1C(=O)Sc1nnc(-c2ccc(C(F)(F)F)nc2C)o1	12	103	95	7
CCNc1c(NC(=O)CC23CC4CC(CC(C4)C2)C3)c(=O)oc2ccccc12	-7	100	95	-17
O=C(CNCCCN1CCOCC1)Nc1cccc(C(F)(F)F)c1	15	93	75	-50
C#CCSc1nc(COC)cc(=O)[nH]1	8	103	108	-13
CC(NC(=O)c1cccs1)C1CC2CCC1C2 (configuration not stated)	-10	101	102	.
OC1C=CSc2nc3ccccc3n21 (configuration not stated)	9	102	100	-16
CCc1ccc(CNC(=O)c2cnc(N3CCCC3)nc2)cc1	-27	101	106	-25
CN(C)c1ccc2c3c(ccc(N(C)C)c13)[C@](O)(C(F)(F)F)O[C@]2(O)C(F)(F)F	10	100	100	4
O=C(Nc1nnc(C2CCCCC2)s1)C1CC(=O)N(c2ccccc2)C1 (configuration not stated)	-4	102	104	-35
O=C(O)/C=C/C(=O)N1CCN(c2ccc(C(F)(F)F)cn2)CC1	-80	103	104	2
NC(=O)Cn1c(CN2CCC(Cc3ccccc3)CC2)nc2ccccc2c1=O	9	101	103	-14
O=C(/C=C/c1ccccc1)NC(=S)N1CCCCC1	2	100	101	-6
C=CCNC(=O)COc1ccccc1	-9	100	103	4
CC(O)(CC(=O)O)C12CC3CC(CC(C3)C1)C2 (configuration not stated)	-7	101	104	-48
CCOC(=O)c1oc2ccccc2c1COC(=O)c1cccc(C#N)c1	37	99	106	-7
Cc1ccc2cc(C#N)c(SCC(=O)N3CCCC3)nc2c1	-2	101	102	-50
CCCCC(C)(O)C/C=C/[C@H]1[C@H](O)CC(=O)[C@@H]1CCCCCCC(=O)O (some centres not stated)	-11	101&101	103&102	7
O=C(OCC(=O)N1CCN(c2ccccc2)CC1)c1cccc(F)c1	-11	102	102	-5
O=c1[nH]nc(SCCS(=O)(=O)c2ccc(F)cc2)n1Cc1ccco1	-7	104	98	7
CC1CC(C)CN(S(=O)(=O)Cc2ccccc2)C1 (configuration not stated)	.	98	110	-18
Cc1cc[n+](CC(=O)N2CCCCC2)cc1	0	101	103	20
COc1ccccc1NC(=O)COC(=O)C1CC1	-2	102	98	.
CC1CN(Cc2nc3c(Br)cc(Br)cc3c(=O)[nH]2)CC(C)O1 (configuration not stated)	2	102	100	-7

Carrying on.
SMILES	MbtI inh	Polio RdRp inh	Polio RdRp inh intensity	Mtb MenB inh
CCOc1ccc(C(=O)C(C)Sc2nc(-c3ccco3)c(C#N)c(=O)[nH]2)cc1 (configuration not stated)	0	104	109	-17
Cc1ccc(-c2nnc(SCC#N)nc2-c2ccc(C)cc2)cc1	-3	116	123	-31
Cc1ccc(-c2csc(Nc3ccccn3)n2)cc1	-8	102	101	.
CN(C(=O)COc1cccc(CO)c1)c1ccccc1	-8	104	101	-3
C=CCn1c(N)c(C#N)c2nc3ccccc3nc21	102	102	103	-60
O=C(Cn1c(C(F)(F)F)nc2ccccc21)NN=C1CCCC1	18	98	99	5
C=CCn1c(C)cc(C(=O)COC(=O)Cn2[nH]c(=O)c3ccccc3c2=O)c1C	-40	98	105	-3
N#Cc1ccc(NC(=O)c2nc3ncccn3n2)cc1	27	102	102	-23
CN1C(=O)/C(=C/c2ccco2)N(C)C1=S	20	101	105	-473
O=C1CCS(=O)(=O)CC1	-5	101	103	-1
CN1CCCN(C(=O)c2ccc(Oc3ccccc3)cc2)CC1	-51	101	97	.
CCOP(=S)(OCC)C1(C#N)CC1	-3	97	101	-6
CCN(CC)C(=O)C1Sc2nnc(-c3ccccc3)n2NC1c1ccc(C)cc1 (configuration not stated)	-4	100	103	-3
O=S(=O)(c1ccc2ccccc2c1)N1CCCCC1	-3	103	106	2
Cc1ccccc1CNC(=O)CCC(=O)N1CCSc2ncccc21	10	101	98	10
COc1ccc(CN=C(Nc2ccccc2)SC2CC(=O)NC2=O)cc1 (configuration not stated)	-6	105	105	-16
CCc1cc2c(SCC(=O)Nc3ccc(S(=O)(=O)N4CCOCC4)cc3)ncnc2s1	-1	107	113	-20
CC1(C)CC2CC(C)(CN2C(=O)CSCC(=O)O)C1 (configuration not stated)	-5	101	96	.
CCCN(CCC)C(=O)Nc1ccc(CC)cc1	3	102	100	-24
CCC1CCc2sc(C(=O)N=c3sccn3C)cc2C1 (configuration not stated)	16	105	109	-26
CCOC(=O)c1nnc(-c2ccc3c(c2)OCO3)o1	17	101	103	-28
Cn1c(O)c(/C=C2/C=Nc3ccccc32)c(=O)n(C)c1=O	12	100	103	-11
COc1ccccc1OCC(O)CN1CCN(CC(=O)Nc2c(C)cccc2C)CC1 (configuration not stated)	-21	97	102	0
O=C1NC2(CCCCC2)C(=O)N1c1ccc(Cl)cc1	1	103	105	-39
CN(c1ccccn1)S(=O)(=O)c1cc(Cl)ccc1Cl	6	107	107	-18
Cn1c(=O)n(C2(C)CSC2)c2ccccc21	0	97	97	-32
CCOC(=O)Cn1nc(-c2nonc2N)nc1-c1nonc1N	9	101	102	-10
CC(=O)NCCc1csc(-c2ccccc2)n1	10	103	99	-18
Cc1ccc(C)n1-c1ccc(C(=O)N/N=C/c2ccncc2)cc1	18	103	105	-24
N#C/C(=C(/O)c1cc2ccccc2o1)c1nc2ccccc2s1	5	103	121	-52
CC(C)c1ccc(OCc2ccc(C(=O)N(C)C)o2)cc1	.	103	105	-12
O=C(NCCCNC1CCCCC1)c1ccc(/C=N/O)nc1	-4	102	101	-3
COCCn1cnc2c1c(=O)n(CC(=O)OCC(=O)NC1CCCC1)c(=O)n2Cc1ccccc1	9	100	100	-9
FC(F)(F)c1ccc2nnn(OCc3nnc(-c4ccccc4)o3)c2c1	-12	103	110	3
CCCC1=C(C(=O)OCC)C(c2ccccc2Cl)C(C#N)=C(SC)N1 (configuration not stated)	46	101	99	-53
COC(=O)c1scc(S(=O)(=O)Cc2ccco2)c1NN=C(C#N)C#N	6	100	97	-210
O=CN1CCN(C(=O)CC(c2ccccc2)c2cc(Br)ccc2O)CC1 (configuration not stated)	2	100	102	-10
O=C(N/N=C/c1ccc(Cl)cc1)c1csc(CS(=O)(=O)Cc2ccco2)n1	9	100	98	-6
Cn1c(=O)c2c(-c3ccc(Cl)cc3)n(CC3CCCO3)cc2n(C)c1=O (configuration not stated)	-185	101	106	-6
Cc1ccc(NC(=O)COC(=O)c2cncc(Br)c2)c(C)c1	-5	102	109	.

Ordered by SMILES length (descending): part of the list above
SMILES	MbtI inh	Polio RdRp inh	Polio RdRp inh intensity	Mtb MenB inh
COC(=O)c1scc(S(=O)(=O)Cc2ccco2)c1NN=C(C#N)C#N	6	100	97	-210
O=CN1CCN(C(=O)CC(c2ccccc2)c2cc(Br)ccc2O)CC1 (configuration not stated)	2	100	102	-10
CC(C)c1ccc(OCc2ccc(C(=O)N(C)C)o2)cc1	.	103	105	-12

(list continues)
SMILES	MbtI inh	Polio RdRp inh	Polio RdRp inh intensity	Mtb MenB inh
COc1ccc(C)cc1NC(=O)COC(=O)c1sc2nc(C)[nH]c(=O)c2c1C	21	104	108	-3
Cc1cc(C=C(C#N)C#N)c(C)n1CC(F)(F)F	10	98	107	-28
CCOc1ccc2oc(C(C)(C)C)c(C(=O)OC)c2c1	-28	100	105	-28
COC(=O)CNC(=O)c1cccs1	8	106	97	6
CN(C)/C=C(\C#N)c1nnc(-c2ccccn2)n1C	8	122	138	-1
Cc1ccc(-c2cc(C(=O)N3CCCC3)[nH]n2)cc1C	8	101	103	11
O=C(NC1CCCCC1)c1ccc(Cn2cc(Br)cn2)o1	3	100	102	-4
COc1ccc2nc(NN=c3c(=O)c4ccccc4c3=O)sc2c1	-6	102	105	-11
CCOc1ccc(C(=O)NC(C(=O)N2CCN(C)CC2c2ccccc2)C(C)C)cc1 (configuration not stated)	1	103	102	-23
COC(=O)c1cc(S(=O)(=O)N2CCn3c2nc2ccccc23)c[nH]1	-8	100	102	3

Among those listed so far, eight have an aryl thioether with sulfur outside any ring:
SMILES	MbtI inh	Polio RdRp inh	Polio RdRp inh intensity	Mtb MenB inh
CCCSc1nnc(NC(=O)C(CC)CC)s1	6	100	104	7
COC(=O)/C=C/CSc1nnc(-c2ccc(Cl)cc2Cl)o1	.	108	110	-19
C#CCSc1nc(COC)cc(=O)[nH]1	8	103	108	-13
Cc1ccc2cc(C#N)c(SCC(=O)N3CCCC3)nc2c1	-2	101	102	-50
O=c1[nH]nc(SCCS(=O)(=O)c2ccc(F)cc2)n1Cc1ccco1	-7	104	98	7
CCOc1ccc(C(=O)C(C)Sc2nc(-c3ccco3)c(C#N)c(=O)[nH]2)cc1 (configuration not stated)	0	104	109	-17
Cc1ccc(-c2nnc(SCC#N)nc2-c2ccc(C)cc2)cc1	-3	116	123	-31
CCc1cc2c(SCC(=O)Nc3ccc(S(=O)(=O)N4CCOCC4)cc3)ncnc2s1	-1	107	113	-20

(more compounds)
SMILES	MbtI inh	Polio RdRp inh	Polio RdRp inh intensity	Mtb MenB inh
Cn1c(SCCC(=O)O)nnc1-c1ccncc1	-4	101	100	-10
C=CCn1c(Cc2cccs2)nnc1SCC(=O)NC1CC1	-5	104	101	-4
CC(CCC(=O)O)C1CCC2C3C(O)CC4CC(O)CCC4(C)C3CC(O)C12C (configuration not stated)	-3	101	100	32
CCCn1cnc2sc3c(c2c1=O)CCCC3	-3	101	102	10
O=C(CSc1nn(-c2ccccc2)c(=S)s1)N1N=CCC1c1ccccc1 (configuration not stated)	-3	105	107	-10
CCCCn1nc(CC(=O)O)c2ccccc2c1=O	3	106	102	-28
COc1cc(C(=O)NC(=S)NN2CCN(C)CC2)cc(OC)c1OC	-10	104	114	4
Cc1cc(=O)[nH]c(SCC(N)=O)n1	-3	103	102	-9
CC(C)(C)c1cc(C(=O)O)cc(C(C)(C)C)c1O	2	102	106	-26
c1ccc(Oc2nnc(-c3ccccc3)c3ccccc23)cc1	.	103	97	0
COc1ccc(NC(=O)C2CCC(CNS(=O)(=O)c3cccc4nsnc34)CC2)cc1 (configuration not stated)	-8	100	101	3
NC(=O)c1cccc(S(=O)(=O)N2CC(c3ccccc3)CC2=O)c1 (configuration not stated)	.	104	109	2
O=C(COc1ccccc1F)NC(=Nc1ccccc1)c1ccccc1	-6	101	98	.
Cc1[nH]c(-c2ccc(F)cc2)cc1C(=O)NCCCN1CCN(C2CCCCC2)CC1	-22	104	107	-19
COc1ccc(C(C)C)cc1S(=O)(=O)N1CC(C)OC(C)C1 (configuration not stated)	-12	102	102	-8
CC(=O)N1CCc2cc(N=Cc3ccc(O)cc3)ccc21	3	103	107	-23
N#CC1=C(N)SC(N)=C(C#N)C1c1ccccc1F	.	39	256	-55

Rows were taken by chance. About 1.7% of those tested had a hit in this group.
